AF4-AF9 inh = inhibitors of human MLL-AF4/AF9 interaction. P42568. AlphaScreen, biotin-AF4 peptide binding to FLAG-AF9. inhibition, % at 10 µM. 350,000 tested, 0.47% active. AID 651704;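 active = every replicate reaching a set inhibition limit, whatever the replicate mean, cut at about 25% in these data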;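 note: 0% = plate neutral control median and 100% = total signal loss; the record names both 10 and 1 µM as test concentration; the first replicate is given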
Target sequence (P42568 whole entry, looked up): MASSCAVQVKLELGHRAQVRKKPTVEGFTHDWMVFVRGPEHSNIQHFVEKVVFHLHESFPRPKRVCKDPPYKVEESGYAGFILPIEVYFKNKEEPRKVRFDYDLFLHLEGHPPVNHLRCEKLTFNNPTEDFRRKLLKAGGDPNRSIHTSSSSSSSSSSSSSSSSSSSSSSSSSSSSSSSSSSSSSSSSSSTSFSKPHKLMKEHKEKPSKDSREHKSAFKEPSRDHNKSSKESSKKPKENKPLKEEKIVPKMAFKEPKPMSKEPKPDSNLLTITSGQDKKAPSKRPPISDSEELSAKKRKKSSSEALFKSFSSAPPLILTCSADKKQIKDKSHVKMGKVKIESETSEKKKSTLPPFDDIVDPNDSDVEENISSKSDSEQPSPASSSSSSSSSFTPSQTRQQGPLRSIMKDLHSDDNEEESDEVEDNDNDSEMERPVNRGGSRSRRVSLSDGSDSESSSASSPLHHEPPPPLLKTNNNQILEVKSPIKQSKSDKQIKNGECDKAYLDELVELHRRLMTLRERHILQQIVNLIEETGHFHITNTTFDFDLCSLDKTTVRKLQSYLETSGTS
rRNA inh HTS = inhibits bacterial ribosomal RNA function over humanized ribosomes; E. coli WT GFP vs humanized-ribosome RFP mutants, fluorescence, 24 h; hits give low values; DMSO median 0, no signal -100; GFP signal change (wild-type ribosome), % (test concentration not listed); 350,000 tested, 1.6% active; AID 720706;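 active = significant combined selectivity score with lowered wild-type GFP, culture density cut under 30%, mutant RFP and density less affected; inactive = any of these conditions unmet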; note: one replicate is shown; some compounds called inactive have numbers as strong as hits
FGF22 binding = binders of recombinant human FGF22 by thermal shift; Q9HCT0; calls only at 9.99 µM; SYPRO orange fluorescence; percent of sucrose octasulfate shift, DMSO zero; 340,000 tested, 1.5% active;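 active = melting point raised past a set limit in the mean and every replicate; three in four hits are not shown here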
Target sequence (Q9HCT0 whole entry, looked up): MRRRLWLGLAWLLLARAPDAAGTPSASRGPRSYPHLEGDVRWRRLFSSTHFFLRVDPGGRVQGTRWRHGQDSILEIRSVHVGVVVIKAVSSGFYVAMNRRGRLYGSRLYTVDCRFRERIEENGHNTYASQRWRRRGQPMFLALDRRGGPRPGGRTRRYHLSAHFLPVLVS
rRNA inh HTS OD600 = recorded beside rRNA inh HTS, whose call it bears; OD600 change, %; measured here: OD600 growth;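 optical density of the mix in the first replicate; 0 = DMSO median and -100 = no signal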
rRNA inh HTS RFP = also measured in rRNA inh HTS; calls as there; RFP signal change, %; measured here: RFP humanized mutant strains;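 first replicate; 0 = DMSO median and -100 = no signal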
Numbers without * were called inactive; i = inactive; + = active, no number; & = joins results of further samples. Not all compounds are listed; rates above refer to the full screens.

Value order – AF4-AF9 inh	rRNA inh HTS	rRNA inh HTS OD600	rRNA inh HTS RFP	FGF22 binding
O=C(C[C@H]1CC[C@@H](NC(=O)Cc2ccccn2)[C@H](CO)O1)NCCCN1CCOCC1
  -1.5	3	2	-0.9	i
CCN(C[C@H]1N[C@@](C)(C(=O)OC)[C@H]2C(=O)N(C)C(=O)[C@@H]12)S(=O)(=O)c1ccc(C)cc1
  -1.4	2	-1	3.2	i
CC(C)N(C[C@@H]1CSCCS(=O)(=O)N1)C(C)C
  -2.5	13	11	2.2	i
COc1ccc(C(=O)N2C[C@H]3[C@@H](c4ccccc42)[C@@H](CO)N3Cc2ccc(Cl)cc2)cc1
  -1.3	-51*	-37*	-6.7*	i
O=C(C[C@H]1CC[C@@H]2[C@H](COC[C@@H](O)CN2CCC(F)(F)F)O1)NCc1ccc(Oc2ccccc2)cc1
  -0.1	-1	-10	0.8	i
CNC[C@H]1Oc2c(N)cccc2C(=O)N([C@@H](C)CO)C[C@@H]1C
  -3.5	2	8	-0.6	i
NC1=NC(=O)C(c2ccccc2)C(=O)N1 (configuration not stated)
  -2.0	5	11	-2.9	i
CO[C@@H]1CN(C)C(=O)c2ccc(NC(=O)c3cc(C)on3)cc2OC[C@@H](C)N(C(=O)C2CC2)C[C@@H]1C
  -3.2	-1	-3	-2.3	i
Cc1ccc(S(=O)(=O)Nc2cccc3c2O[C@@H](CN(C)C(=O)NC(C)C)[C@H](C)CN([C@@H](C)CO)C3=O)cc1
  -2.4	0	-6	1.4	i
CC(C)NC(=O)Nc1ccc2c(c1)CC(=O)N([C@@H](C)CO)C[C@@H](C)[C@@H](CN(C)Cc1ccc(-c3ccccc3)cc1)O2
  -1.4	1	-33	21	i
Cc1noc(C)c1NC(=O)Nc1cccc2c1O[C@H](CN(C)Cc1ccc(Oc3ccccc3)cc1)[C@@H](C)CN([C@H](C)CO)C2=O
  3.5	-4	-11	1.1	i
Cc1ccccc1S(=O)(=O)NC(=O)C1(C)CCN1C(=O)C1(c2ccc(Cl)cc2)CC1 (configuration not stated)
  0.8	-15*	13*	7.7*	i
CC(C)NC(=O)Nc1ccc2c(c1)CC(=O)N([C@@H](C)CO)C[C@H](C)[C@@H](CN(C)S(C)(=O)=O)O2
  -1.5	1	-3	-1.4	i
CCCNC(=O)N1CC(=O)N2[C@@H](CO)[C@H](c3ccc(C#Cc4cccc(OC)c4)cc3)[C@@H]2C1
  -1.5	-4	-16	-1.2	i
C[C@H](CO)N1C[C@H](C)[C@H](CN(C)C)Oc2ccc(NC(=O)Cc3cn(C)c4ccccc34)cc2CC1=O
  1.2	4	4	-3.2	i
C[C@@H]1CCCCO[C@@H](CN(C)S(C)(=O)=O)[C@@H](C)CN([C@H](C)CO)C(=O)c2cc(NC(=O)Nc3ccccc3)ccc2O1
  1.5	0	4	0.6	i
O=C([C@H]1[C@H](CO)[C@H]2Cn3c(cccc3=O)[C@@H]1N2CC1CCCC1)N1CCc2ccccc2C1
  1.3	-4	-4	-3.5	i
NC(=O)c1cccc(-c2ccnc3c2CC(C(=O)Nc2ccc(Cl)cc2)O3)c1 (configuration not stated)
  -5.3	2	-16	-5.6	i
Cc1ccc(S(=O)(=O)N[C@H]2CC[C@H](CC(=O)NCCc3ccncc3)O[C@H]2CO)cc1
  0.4	4	3	-2.3	i
C[C@@H](NC(=O)C[C@H]1C=C[C@H](NS(=O)(=O)c2cccc(F)c2)[C@@H](CO)O1)c1ccccc1
  0.5	-2	2	0.0	i
C[C@@H]1CN([C@H](C)CO)C(=O)c2cccc(NC(=O)C3CCCCC3)c2O[C@@H]1CN(C)S(=O)(=O)c1cccs1
  -3.2	-5	-15	0.5	i
O=C(NC1Cc2ccccc2C1)[C@H]1N[C@H]2c3ccc(C4=CCCCC4)c(=O)n3C[C@H]2[C@@H]1CO
  10	-12	-27	-2.7	i
C[C@@H]1CN([C@H](C)CO)S(=O)(=O)c2ccc(C#CC3(O)CCCC3)cc2O[C@@H]1CN(C)C(=O)Nc1ccccc1
  -11	-2	-6	1.0	i
C[C@@H]1CN([C@H](C)CO)C(=O)c2cc(C#CC3CC3)cnc2O[C@@H]1CN(C)Cc1cccc(C(=O)O)c1
  1.5	3	5	-1.6	i
C[C@H]1CCCCO[C@@H](CN(C)C(=O)Nc2ccccc2)[C@@H](C)CN([C@@H](C)CO)C(=O)c2cc(NS(C)(=O)=O)ccc2O1
  -3.1	1	-3	-1.7	i
C[C@H](CO)N1C[C@H](C)[C@H](CN(C)Cc2cccc(F)c2)Oc2ncc(Br)cc2C1=O
  0.5&0.2&-7.1	9	13	-3.5	i
COc1ccc(NC(=O)N(C)C[C@H]2OCCCC[C@H](C)Oc3ccc(NC(=O)Nc4c(C)noc4C)cc3C(=O)N([C@H](C)CO)C[C@@H]2C)cc1
  -1.4	0	2	1.0	i
CCCNC(=O)N1CC2(CN(C(=O)Nc3cccc(F)c3)C2)c2c(n(C)c3cc(OC)ccc23)[C@@H]1CO
  2.3	-3	-8	-2.0	i
C[C@H](CO)N1C[C@H](C)[C@H](CN(C)C(=O)Nc2ccc(C(F)(F)F)cc2)OCCCC[C@H](C)Oc2ccc(NC(=O)Nc3ccccc3)cc2C1=O
  1.7	4	7	-0.9	i
Cc1ccc(S(=O)(=O)Nc2ccc3c(c2)C(=O)N([C@@H](C)CO)C[C@@H](C)[C@@H](CN(C)C(=O)Nc2ccc4c(c2)OCO4)OCCCC[C@@H](C)O3)cc1
  2.4	-1	-2	-1.7	i
CC(C)CNC(=O)C1(C)CCCN1Cc1ccc(OC(F)(F)F)cc1 (configuration not stated)
  -2.7	-4	-5	0.5	i
C[C@H](CO)N1C[C@H](C)[C@@H](CN(C)Cc2cncnc2)Oc2ncc(-c3cccc(C#N)c3)cc2C1=O
  -1.7	6	9	-0.4	i
C/C=C/c1ccc2c(c1)O[C@@H](CN(C)C(=O)Nc1cccc(F)c1)[C@@H](C)CN([C@@H](C)CO)S2(=O)=O
  6.1	-12	-28	4.8	+
C[C@H](CO)N1C[C@H](C)[C@H](CN(C)Cc2ccc(C(=O)Nc3ccccc3N)cc2)Oc2c(NC(=O)c3cnccn3)cccc2C1=O
  1.3	-4	0	-1.6	i
O=C(C[C@@H]1CC[C@H]2[C@@H](COC[C@@H](O)CN2C(=O)Nc2ccc(F)cc2)O1)NC1CCC1
  1.6	0	1	-1.5	i
CCCNC(=O)N1C[C@@H](C)[C@H](OC)CN(C)C(=O)c2cc(NC(=O)CCC)ccc2OC[C@@H]1C
  -3.3	-1	-2	0.7	i
O=C(c1cccc(F)c1)N1CCCCN2[C@@H](CO)[C@@H](c3ccc(/C=C/c4ccccc4)cc3)[C@@H]2C1
  8.7	-42	-46	-16	i
Cc1ccc(C)c(NC(=O)C(OC(=O)c2ccc(CO)cc2)c2ccccc2)c1 (configuration not stated)
  0.9	4	8	2.6	i
C[C@H](CO)N1C[C@H](C)[C@H](CN(C)S(=O)(=O)c2ccc(F)cc2)OCCCC[C@H](C)Oc2ccc(NS(=O)(=O)c3cccs3)cc2C1=O
  -0.4	-5	-3	-0.5	i
COc1cc(NC(=O)c2cccc3c(-c4cnn(C)c4)coc23)cc(OC)c1OC
  -11	-11	-8	1.6	i
C[C@H](NC(=O)C[C@@H]1C=C[C@H](NC(=O)C2CC2)[C@@H](CO)O1)c1ccccc1
  -1.0	0	0	-0.4	i
Cc1cccc(-c2nc(CCNC(=O)c3ccco3)cs2)c1
  -1.9	-13	-28	0.3	i
CNc1cccnc1C=NNC(N)=S
  6.4	31	19	1.9	i
C#CCNC(=O)c1ccc2sc([C@H]3C[C@H](O)[C@@H](CO)O3)nc2c1
  -0.3	3	-8	6.4	i
CC1(C(=O)NCc2ccccc2)CN(S(C)(=O)=O)CC(=O)N1Cc1cccs1 (configuration not stated)
  -2.7	14	14	2.8	i
CO[C@H]1CN(C)C(=O)c2cc(NS(C)(=O)=O)ccc2OC[C@H](C)N(Cc2cncnc2)C[C@H]1C
  -3.0	2	1	-4.5	i
C[C@@H]1CCCCO[C@@H](CN(C)C(=O)Nc2ccc(C(F)(F)F)cc2)[C@@H](C)CN([C@H](C)CO)C(=O)c2cc(NC(=O)C3CCCCC3)ccc2O1
  -1.0	3	13	0.4	i
COc1ccccc1-c1ccc2c(c1)O[C@@H](CN(C)C(C)=O)[C@H](C)CN([C@H](C)CO)S2(=O)=O
  -1.5	-3	-9	-3.8	i
CO[C@H]1CN(C)C(=O)c2ccc(NC(C)=O)cc2OC[C@@H](C)N(C(=O)C2CCCCC2)C[C@@H]1C
  3.3	-1	-7	-1.5	i
CN1C(=O)c2cc(NS(C)(=O)=O)ccc2OC[C@@H]2O[C@@H](CC(=O)NCc3ccc(-c4ccccc4)cc3)CC[C@@H]21
  -14	-6	-42	0.8	i
CCOC(=O)C1=C(C)N(C[C@@H]2CC[C@@H](Cc3ccc(-c4ccccc4)cc3)O2)C(=O)NC1c1cccc([N+](=O)[O-])c1 (some centres not stated)
  3.6	19	15	1.3	i
Cc1ccccc1S(=O)(=O)NCC[C@H]1CC[C@@H](NC(=O)C2CCC2)[C@H](CO)O1
  -1.3	1	3	2.3	i
C[C@@H]1CN([C@H](C)CO)C(=O)c2cccc(NC(=O)C3CC3)c2O[C@@H]1CN(C)Cc1ccc(C(F)(F)F)cc1
  -1.0	1	3	-0.8	i
C[C@@H]1CN([C@@H](C)CO)S(=O)(=O)c2ccc(C#Cc3ccc(F)cc3)cc2O[C@@H]1CN(C)S(C)(=O)=O
  -2.5	-1	-25	-0.6	i
COCCNC(=O)C[C@@H]1CC[C@H]2[C@H](COc3ccc(NC(=O)Nc4cccc(F)c4)cc3C(=O)N2C)O1
  -1.2	-1	8	0.5	i
C[C@H](CO)N1C[C@H](C)[C@@H](CN(C)S(=O)(=O)c2ccc(F)cc2)Oc2ncc(/C=C/c3ccccc3)cc2C1=O
  8.7	-5	0	-2.2	i
CC(C)CC#Cc1cnc2c(c1)C(=O)N([C@@H](C)CO)C[C@H](C)[C@@H](CN(C)C(=O)c1ccc(F)cc1)O2
  3.2	0	-1	4.9	i
C[C@@H]1CN([C@@H](C)CO)S(=O)(=O)c2ccc(C#CC3(O)CCCC3)cc2O[C@@H]1CN(C)C(=O)c1ccncc1
  -2.9	3	3	-3.0	i
CC(C)NC(=O)N(C)C[C@@H]1Oc2ncc(-c3ccc(C(=O)N(C)C)cc3)cc2C(=O)N([C@H](C)CO)C[C@H]1C
  -2.1	3	10	1.2	i
CCCOC(=O)c1ccc(NC(=O)COC(=O)C2CCN(c3ccc(C(F)(F)F)cn3)CC2)cc1
  4.5	-6	-21	26	i

Five compounds from above, limited to FGF22 binding and rRNA inh HTS OD600.
molecule,FGF22 binding,rRNA inh HTS OD600
C[C@@H]1CN([C@@H](C)CO)S(=O)(=O)c2ccc(C#Cc3ccc(F)cc3)cc2O[C@@H]1CN(C)S(C)(=O)=O,i,-25
COCCNC(=O)C[C@@H]1CC[C@H]2[C@H](COc3ccc(NC(=O)Nc4cccc(F)c4)cc3C(=O)N2C)O1,i,8
C[C@H](CO)N1C[C@H](C)[C@@H](CN(C)S(=O)(=O)c2ccc(F)cc2)Oc2ncc(/C=C/c3ccccc3)cc2C1=O,i,0
CC(C)CC#Cc1cnc2c(c1)C(=O)N([C@@H](C)CO)C[C@H](C)[C@@H](CN(C)C(=O)c1ccc(F)cc1)O2,i,-1
C[C@@H]1CN([C@@H](C)CO)S(=O)(=O)c2ccc(C#CC3(O)CCCC3)cc2O[C@@H]1CN(C)C(=O)c1ccncc1,i,3

Looked up one by one from above, 2 records:
Value order – AF4-AF9 inh	rRNA inh HTS	rRNA inh HTS OD600	rRNA inh HTS RFP	FGF22 binding
O=C(c1cccc(F)c1)N1CCCCN2[C@@H](CO)[C@@H](c3ccc(/C=C/c4ccccc4)cc3)[C@@H]2C1
  8.7	-42	-46	-16	i
COc1cc(NC(=O)c2cccc3c(-c4cnn(C)c4)coc23)cc(OC)c1OC
  -11	-11	-8	1.6	i

Next part.
Value order – AF4-AF9 inh	rRNA inh HTS	rRNA inh HTS OD600	rRNA inh HTS RFP	FGF22 binding
Cc1noc(C)c1NC(=O)N[C@@H]1CC[C@H](CCNC(=O)C2CCCC2)O[C@@H]1CO
  -3.5	0	5	-1.1	i
O=C(c1ccc2c(c1)OCO2)N1C[C@@H]2[C@H](c3ccccc31)[C@H](CO)N2CC1CCCC1
  1.2	-41	-72	6.1	i
C[C@H]1CCCCO[C@H](CN(C)Cc2ccc(C(=O)O)cc2)[C@@H](C)CN([C@@H](C)CO)C(=O)c2cc(NC(=O)c3ccncc3)ccc2O1
  -4.1	5	4	1.0	i
C[C@@H]1CN([C@H](C)CO)C(=O)c2cc(C#Cc3ccncc3)cnc2O[C@H]1CN(C)CC1CCCC1
  -6.8	8	7	-2.7	i
COc1cccc(CNC(=O)c2cc3c(c(-c4cccc(-c5cccc(C#N)c5)c4)n2)[C@H](CCO)N([S@@](=O)C(C)(C)C)C3)c1
  6.7	-58	-73	-7.6	i
CC1C(=O)N(Cc2cn(CCC3OCCO3)nn2)CCS(=O)(=O)N1Cc1ccc(-c2ccccc2)cc1 (configuration not stated)
  0.9	1	-3	-5.4	i
C[C@@H]1CN([C@H](C)CO)C(=O)c2cccc(NC(=O)C3CCCCC3)c2O[C@H]1CN(C)S(=O)(=O)c1ccc(Cl)cc1
  -0.3	-10	-22	-4.1	i
